High-throughput results (PubChem BioAssay)
RE007 growth inh = less growth of the S. pombe RE007 Vpr strain; S. pombe RE007 Vpr strain, BacTiter-Glo ATP luminescence, 24 h; control for the full effect not named in the record; 360,000 compounds, 0.21% hits; Potency, µM (doses to about 92.2 µM), for inactives: at the highest dose activity change, negative = less growth; active = well fitted falling curve with a large enough effect; inconclusive = small, poorly fitted or top-dose-only effect; inactive = no such curve, though single readings can be large or run the other way;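 note: nearly all actives have a fitted effect of over 50% in size; the assay follows cell death caused by Vpr and the record does not say whether a fall means rescue or toxicity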
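Fission yeast strain RE007, carrying one chromosomally integrated HIV-1 vpr copy, was seeded at OD 0.01 in PMG+AL medium with 23 nL pinned compound. After 24 h at 30 °C and 99% humidity, viability was read by BacTiter-Glo luminescence.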
2A StopGo = FMDV 2A StopGo reporter, luciferase signal; human cells with a luciferase reporter of 2A StopGo recoding; control for the full effect not named in the record; Potency, µM (top dose mostly 57.9 µM), without a hit: top-dose signal change, negative = less light; 410,000 compounds, 1.2% hits; AID 1159524; active = well fitted falling curve with a large enough effect; inconclusive = small, poorly fitted or top-dose-only effect; inactive = no such curve, though single readings can be large or run the other way; tested in HEK293T cells; note: nearly all actives have a fitted effect of over 45% in size; luciferase light after 4 h
* = called active by the depositor; ? = inconclusive; [ ] = another dose, or the depositor's remark. % is set by controls: 0 for no effect and ±100 for the full control effect; potency is the fitted concentration of half-maximal effect. These rows are one share of the data; rates above refer to the full screens.

SMILES	RE007 growth inh	2A StopGo
O=C(CCNS(=O)(=O)c1ccc(Br)cc1)NCC(c1cccs1)N1CCOCC1 (stereo not drawn)	2%	-18%
COC(=O)C[C@@H]1CC[C@H](NC(=O)Nc2cccc(F)c2)[C@@H](CO)O1	-2%	-6%
CC1(C)C(C(N)=O)C(=O)NC(=O)C1C(N)=O (stereo not drawn)	3%	-1%
Cc1cccc(C)c1NC(=O)C(c1ccccc1)n1c(=O)c(-c2ccccc2)nc2ccccc21 (stereo not drawn)	9%	-3%
O=C(Nc1cccc(F)c1)c1ccc(-n2cncn2)c2ccoc12	-20%	30%
O=C(Cc1cccc(NC(=O)C2CCN(C(=O)CCc3ccccc3)CC2)c1)Nc1cccc(C(=O)N2CCOCC2)c1	-7%	-20%
CC1(C(=O)NCc2cccs2)CCN1CCc1ccccc1 (stereo not drawn)	-8%[18.4 µM]	-25%
O=C(NCc1ccc(F)cc1)c1cc(C2CCCCN2C(=O)CCc2ccccc2)on1 (stereo not drawn)	4%	8%
CCC[C@H]1CC(=O)C=C(c2ccsc2)ON1C(=O)OC(C)(C)C	-13%	-13%
CCC(C(=O)Nc1ccc(Cl)cc1)N1CCCC1=O (stereo not drawn)	11%	14%
O=C(OCc1ccccc1)N1CCC2CC1c1cc(NCCc3ccccc3)ccc12 (stereo not drawn)	8%	25%
CC(=O)c1cccc(-c2ccnc3c2CC(C(=O)Nc2cccc(C(F)(F)F)c2)O3)c1 (stereo not drawn)	2%	?
COC(=O)c1ccc(CSc2ccccc2NC(=S)Nc2cccc(C(F)(F)F)c2)o1	20%	8%
COc1cc(C(=O)COC(=O)c2ccc3c(c2)OCCO3)cc(OC)c1OC	-15%	-30%
Cc1cccc(C)c1-n1nnnc1C1c2ccccc2C(=O)N1C1CC1 (stereo not drawn)	-6%	-6%
O=C(Nc1ccccc1)c1cc(C2CCCCN2C(=O)OCCF)on1 (stereo not drawn)	4%	40%[activator]
C/C=C/c1cccc(-c2nc(C(=O)N3CCCCC3)cc3c2[C@@H](CCO)N(C(=O)NC(C)C)C3)c1	-2%	-17%
COc1ccc2sc(C)cc(=O)c2c1	-10%	12%
C=Cc1ccc(Cn2c(C)c(C(=O)NCCC#N)sc2=O)cc1	8%[18.4 µM]	-13%
CC(C)C[C@@H](CN1CCC[C@@H]1CN1C(=S)NC[C@@H]1Cc1ccc(O)cc1)N1C[C@H](Cc2ccc(O)cc2)N(CCc2ccccc2)C1=S	7%	?
O=C(Nc1c(Cl)ccc2nsnc12)c1ccc(Br)o1	24%	-11%
CCOc1ccc(C(=O)OCC(=O)Nc2cc(S(=O)(=O)N3CCOCC3)ccc2N2CCOCC2)cc1	-5%	5%
Cn1c(NCc2ccccc2)nc2cc(-c3ccccc3)sc2c1=O	4%	11%
Nc1nc(N)c2ncn(C3C=CC(CO)C3)c2n1 (stereo not drawn)	7%	2%
Cc1nc(-c2ccc(Cl)cc2)sc1C1(C)CC(c2ccc(Cl)cc2)=NO1 (stereo not drawn)	30%	-4%

The results go on:
SMILES	RE007 growth inh	2A StopGo
CCCNc1nc(-c2cc(C(=O)Nc3ccccc3)on2)cc(C(C)C)n1	1%	?
CCC(C)(C)C1CCC2(CC1)NC(=O)N(CC(=O)N1CCN(c3ccccc3OC)CC1)C2=O (stereo not drawn)	2%	-29%
CC1(C(=O)NCc2cccs2)Cc2c(-c3ccc4c(c3)OCO4)ccnc2O1 (stereo not drawn)	-2%	-6%
COc1ccc(S(=O)(=O)N(C)C[C@@H]2OCc3cn(nn3)CCCC(=O)N([C@@H](C)CO)C[C@H]2C)cc1	-10%	-5%
CC(C)c1c(O)ccc2c1CC[C@H]1C(C)(C)CCC[C@]21C	-8%[18.4 µM]	?
O=c1cc(CCc2ccccc2)[nH]c(=O)[nH]1	-10%[18.4 µM]	-9%
O=CNc1cc(-c2ccc(C(=O)NC3CC3)cc2)cn2c(-c3ccc(F)c(Cl)c3)cnc12	-7%[18.4 µM]	0%
O=Cc1ccc(-c2c(-c3ccccc3)oc3c2C(OCCCCO)CCC3)o1 (stereo not drawn)	-7%	-8%
C[C@H]1CN([C@@H](C)CO)C(=O)CCCn2nncc2CO[C@H]1CN(C)C(=O)CCC(F)(F)F	19%	-9%
CC(C)NC(=O)C1(C)CCN1C(=O)C1(c2ccccc2)CC1 (stereo not drawn)	3%	-12%
COc1cccc(CNC(=O)[C@@H]2CCCN2)c1	-16%	-18%
COc1cccc(C(=O)Nc2ccc3c(c2)OC[C@H](C)N(C(=O)C2CCCC2)C[C@@H](C)[C@@H](OC)CN(C)C3=O)c1	0%	-19%
CCNC(=O)C1(C)CCCN(C(=O)c2cc3ccccc3s2)C1 (stereo not drawn)	2%[18.4 µM]	4%
CCCc1nc2c3ccccc3ccn2c1CC(C)(C)C	?	-20%
COc1ccc(-c2nc3c(C)cc(Br)cn3c2CC(C)(C)C)cc1OC	-26%	-21%
CC(C)C[C@H]1CNC(=S)N1CC1CCCN1C[C@H](CC(C)C)N1C[C@H](CC(C)C)N(CCc2ccccc2)C1=S (stereo partly drawn)	?	?
CC(C)NC(=O)C1(C)CCCN1C/C=C/c1ccccc1 (stereo not drawn)	-14%[18.4 µM]	-19%
Cc1ccc2nc(-c3ccco3)c(CC(C)(C)C)n2c1	-25%	17%
Nc1ccc(CNC(=O)c2cc3cc(Cl)ccc3nc2N)cc1	-26%	-28%
CCCc1ccc(C(O)c2ncc(-c3cccc(F)c3)[nH]2)cc1 (stereo not drawn)	10%	64%[activator]
COc1ccc(Cn2cc(CN3CC(N4CCN(CCN(C)C)CC4)CS3(=O)=O)nn2)cc1 (stereo not drawn)	3%	-17%
C[C@@]12C(=O)Nc3cc(F)c(F)cc3C(=O)N1[C@H]1c3ccccc3OC[C@@H]1[C@@H]2c1ccccc1	-11%	3%
CC(C)(C)NC(=O)C(c1ccc(C#N)cc1)n1c(=O)c(-c2ccco2)nc2ccccc21 (stereo not drawn)	4%	-5%
Cc1cc2oc(C(=O)N3CCN(Cc4ccccc4)CC3)c(C)c2cc1C	-21%	44%[activator]
c1ccc(-n2nnc(-c3nccs3)n2)cc1	-10%	32%[activator]

Remaining list, next part:
SMILES	RE007 growth inh	2A StopGo
CCCCC[C@H]1CCCCC[C@H](O)C[C@H](O)[C@@H](O)/C=C/C(=O)O1	-5%	0%
CN(Cc1ccccc1)C(=O)CN1CCN(S(=O)(=O)c2ccccc2F)CC1	-5%	?
O=C1OCCOC2CCCc3oc(C4=CCCCC4)c1c32 (stereo not drawn)	-1%	-16%
CC1(C(=O)NCc2ccc3c(c2)OCO3)CCN1C(=O)CCc1ccc(Cl)cc1Cl (stereo not drawn)	3%	?
Cc1ccccc1C(=O)NCCN1CCC(n2c(=O)[nH]c3ccccc32)CC1	5%	-17%
COc1ccc(C(=O)NC[C@H]2O[C@@H](n3cnc4c(N)ncnc43)[C@H](O)[C@@H]2O)cc1OC	13%	-12%
Cc1ccc(-c2nc3ccc(C)cn3c2Cc2ccsc2)cc1	?	22%
COc1cccc(CN(C)C(=O)Cn2cc(C)c(=O)[nH]c2=O)c1	-11%	-12%
COCCNc1ncnc2c1ncn2[C@H]1CN(CCN2CCOCC2)C[C@@H](CO)O1	10%	-17%
CCN(C(=O)COC(=O)CCOc1cc(C)ccc1C)c1c(N)n(Cc2ccccc2)c(=O)[nH]c1=O	2%	-25%
COc1ccc(-c2nc3ccc(Br)cn3c2CC(=O)N2CCCC2)cc1OC	-15%	-17%
Cc1ccc(NC(=O)COc2ccccc2)cc1S(=O)(=O)N1CCCCC1	23%	-22%
CCc1nc2c(OCc3ccccc3)cccn2c1N(C)C(=O)c1ccco1	-21%[18.4 µM]	-12%
CCOC(=O)C1(C)CCN1C(=O)c1ccc(C#N)cc1 (stereo not drawn)	6%	-15%
CC1(C(=O)NS(=O)(=O)C2CC2)CCN(C(=O)c2ccc(F)cc2Cl)C1 (stereo not drawn)	12%[18.4 µM]	-19%
CCOC(=O)[C@]12CCC=C1N(Cc1ccc(Cl)cc1Cl)C(=O)[C@H](CC(=O)N1CCSCC1)C2	10%	-21%
COOCC1(C(=O)OC)C[C@H](c2ccc(OC)cc2)N(Cc2ccccc2OC)[C@@H]1c1ccccc1C (stereo partly drawn)	-2%	-21%
C#CCN(C[C@@H]1[C@@H](OC(=O)NCCCCCC)[C@@H](OC(=O)NCCCCCC)Cn2c(=O)n(CCCCCC)c(=O)n21)S(=O)(=O)c1ccc(C)cc1	-7%	-18%
O=P1(c2ccccc2)CC=CC1	12%	2%
Cc1ccccc1-c1cccc([C@@H]2C[C@H]3C(CN2)CON3C)c1 (stereo partly drawn)	-1%	-11%
CCOC(=O)C1=C[C@@H](C(C)(C)C)N(S(=O)(=O)c2ccc(C)cc2)[C@H]1c1ccc(OC)cc1	-4%	-16%
CNC[C@@H]1Oc2cc(Br)ccc2S(=O)(=O)N([C@H](C)CO)C[C@H]1C	10%	-10%
CNC(=O)C1(c2ccccc2)CCCCC1	-12%	-21%
COC(=O)C[C@@H]1C=C[C@@H](NS(=O)(=O)c2ccc(OC)cc2)[C@@H](CO)O1	25%	-16%
COc1ccc(-c2ccc(CN3C(CC(C)C)C(=O)N(Cc4cn(CC5CCCCC5)nn4)CCS3(=O)=O)cc2)cc1OC (stereo not drawn)	-3%	-20%

The list goes on.
SMILES	RE007 growth inh	2A StopGo
Nc1nc(=O)n(C2CC(O)C(CO)O2)cc1Cl (stereo not drawn)	1%	-17%
CC1(C(=O)NS(=O)(=O)c2ccccc2Cl)CCN1C(=O)CC1CCCC1 (stereo not drawn)	2%	-11%
COc1cccc(C(O)c2nc(-c3ccc(F)cc3OC)cs2)c1 (stereo not drawn)	1%	-26%
C[C@H]1CN([C@@H](C)CO)C(=O)CCCn2nncc2CO[C@@H]1CN(C)C(=O)c1ccc2ccn(C)c2c1	12%	?
O=C(O)C(=Cc1ccccc1[N+](=O)[O-])c1ccc2c(c1)OCO2	-5%	31%[activator]
CC1(C(=O)NS(=O)(=O)c2cccc(OC(F)F)c2)CCN1C(=O)C1CC1 (stereo not drawn)	0%	-14%
CN(C)c1cccc(NC(=O)C2Cc3c(-c4ccccc4Oc4ccccc4)ccnc3O2)c1 (stereo not drawn)	-2%	-35%
COc1ccc(NC(=O)C(C2CC2)n2c(=O)c(-c3cc4ccccc4[nH]3)nc3ccccc32)cc1 (stereo not drawn)	7%	-19%
CC(C)(C)OC(=O)N1CCC[C@H]1C(=O)NCc1ccc(F)cc1F	-1%	-15%
CCCc1nc2c(C)cc(Br)cn2c1Cc1ccc(OC)cc1C	-20%	-12%
CNc1cccc(-c2ccccc2C(C)=O)n1	3%	-23%
CCc1nc2c(OCc3cc(Cl)cc(Cl)c3)cccn2c1N(C)C(=O)Nc1ccccc1OC	-2%[18.4 µM]	-19%
O=C1c2c(-c3ccc(Br)cc3)noc2CCN1Cc1cn(-c2ccccc2)nn1	-9%	-26%
Cc1cc(F)ccc1C(O)c1ncc(-c2ccccc2Cl)[nH]1 (stereo not drawn)	-14%	55%[activator]
O=Cc1ccc(OCc2cn(CC(=O)c3ccc(O)cc3)nn2)cc1	4%	8%
Cc1nc(-c2ccc(Cl)cc2)sc1C1(C)CC(c2ccccc2)=NO1 (stereo not drawn)	14%	64%[activator]
CC(C)C[C@H]1CNC(=O)C(=O)N1C[C@@H]1CCCN1C[C@H](CC(C)C)N1C[C@H](Cc2ccc(O)cc2)N(CCc2ccccc2)C(=O)C1=O	-13%	21%
CCNC(=O)Nc1ccc2c(c1)c(=O)n(C)n2Cc1ccc(Cl)cc1	0%	-13%
